Compound activity as filed in PubChem BioAssay.
PMP22 txn: modulators of PMP22 gene transcription in S16 Schwann cells | Potency, µM (top dose mostly 57.5 µM), inactives show at the top dose activity change, negative = inhibition, actives largely listed as inhibitors | AID 1508649 | S16 Pmp22-F2sN Schwann cells (luciferase reporters placed in the Pmp22 gene), FLuc/NLuc coincidence luminescence, 24 h | 43,000 compounds, 2% hits; active = clear falling dose curves in both reporters; inconclusive = both reporters move, but less clearly or upward; inactive = either reporter flat; the % is the NLuc reporter signal; further: on the % scale 0 is the no-effect control and ±100 the full control effect; some results filed as inactive show a strong effect at the top dose
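S16(c9) Schwann cells with FLuc/NLuc coincidence reporter in the Pmp22 3' UTR; compounds pin-transferred, 24 h at 37C. Dual-luciferase read: FLuc first, then NLuc after Stop&Glo, each 10 min at room temperature.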
HTT promoter inh: inhibits huntingtin promoter activity. HEK293 HTT promoter firefly luciferase reporter (activity 0% = vehicle and -100% = no light), 24 h. Potency, µM (series often up to 57.5 µM), for the others: at the highest dose activity change, negative = inhibition, actives largely listed as inhibitors. 48,000 compounds, 0.93% hits; active means well fitted inhibition curve with a large enough effect; inconclusive means small, poorly fitted or top-dose-only effect; inactive means no such curve, though single readings can be large or run the other way; further: nearly all actives have a fitted effect of over 50% in size
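HEK293 luciferase promoter-reporter cells (2,500/well) plated 24 h, then compounds added at up to 57.5 uM final for 24 h at 37 °C. Firefly luminescence by Dual-Glo, normalized to vehicle (0%) and zero RLU (-100%).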
The depositor's hits bear a star; ? = inconclusive; · = no result given; [ ] = another dose, or the depositor's remark. Potency means the concentration at half of the fitted maximal effect. Not all compounds are listed; the hit share may differ from the screen's.

Every second line gives: PMP22 txn	HTT promoter inh
> Cc1ccc(C)c(NC(=O)CN(C)S(=O)(=O)c2ccc3c(c2)CCC(=O)N3)c1
  1.4%	-15.6%
> CCCCOc1ccc(CNC(=O)Cc2ccc(NC(=O)N3CCSc4ncccc43)cc2)cc1
  -37.5%	?
> COCCCn1c(SCc2cccc(Cl)c2)nc2c(sc3ccccc32)c1=O
  ?	-6.6%
> COc1ccccc1NC(=O)c1c(C)cc(C)nc1SCC(=O)Nc1cccc(C)c1
  -27.3%	?
> Cc1nn2c(C)c(C(=O)NCCc3ccccc3)cnc2c1-c1ccccc1
  -17.8%	10.6%
> COc1cccc(-c2nc(S(=O)(=O)c3ccccc3)c(N3CCC(C)CC3)o2)c1
  ?	-18.8%
> COc1ccc(Cn2ccc3nc(C)c(C(=O)Nc4ccc(C)c(F)c4)cc3c2=O)cc1
  -8.9%	-9.5%
> CCCS(=O)(=O)N1CCC(C(=O)NCCOC)CC1
  -15.3%	-10.8%
> COc1ccc(-c2nc3sc(CCNC(=O)Cc4ccc(Cl)cc4)c(C)n3n2)cc1
  ?	-18.5%
> COc1ccccc1Nc1ncnc2c1nc1n2CCCC1
  8.2%	34.3%[activator]
> CCOc1ccccc1NC(=O)c1nc(SC(C)C)ncc1Cl
  ?	-25.2%
> Cc1ccc(NC(=O)CSc2nc(-c3ccc(F)cc3)nc3c2Cc2c(CO)cnc(C)c2O3)cc1C
  9.4%	-14.4%
> CCOC(=O)c1c(C)oc2ccc(N(C(=O)c3ccncc3)S(=O)(=O)c3ccc(Br)cc3)cc12
  ?	?
> COc1ccc(NC(=O)c2sc3nc4c(cc3c2N)CN(Cc2ccccc2)CC4)cc1OC
  -1.0%	-20.8%
> Cc1ccc(CN2C(=O)C3(c4ccccc42)N(c2ccc(C)c(Cl)c2)C(=O)CS3(=O)=O)cc1 (configuration not stated)
  -21.8%	?
> O=C1CC(c2ccccc2)Sc2nc(-c3ccc(F)cc3)nn21 (configuration not stated)
  13.1%	0.2%
> Cc1ccc(Cl)cc1N1CCN(C(=O)c2cn(C3CCCCC3)c(=O)c3c2c2ccccc2n3C)CC1
  -22.9%	-19.6%
> Cc1ccccc1OCC(=O)Nc1ccc2nc(SCC(=O)N3CCc4ccccc43)sc2c1
  ?	-15.9%
> CC(C)N(Cc1ccccc1)S(=O)(=O)c1ccc(-c2cc(C(F)(F)F)on2)s1
  16.9%	-18.5%
> Cc1ccc(N2CCN(C(=O)CCc3c(C)nc4c(c3C)c(=O)n(C)c(=O)n4C)CC2)c(C)c1
  16.5%	-13.9%
> Cc1ccn2c(Nc3ccc(C(C)C)cc3)c(-c3cccnc3)nc2c1
  ?	?
> CCc1cc2c(cc3c(=O)n(CCCC(=O)NCc4cccc(Cl)c4)ncn32)s1
  ?	-31.1%
> CCC(Sc1nc2ncccc2[nH]1)C(=O)Nc1ccccc1F (configuration not stated)
  -13.1%	-26.0%
> Cc1cccc(-c2noc(CNC(=O)c3ccccc3Br)n2)c1
  13.3%	2.9%
> O=C(CSCc1ccc(F)cc1)N1CCc2c([nH]c3ccccc23)C1c1ccccc1 (configuration not stated)
  -0.7%	?
> Cc1ccc(N2CCN(C(=O)c3cc(S(=O)(=O)N4CCCCC4)c[nH]3)CC2)c(C)c1
  -3.7%	16.2%
> O=C(CCCc1ccccc1)NC1CC(=O)N(c2ccc(F)cc2)C1 (configuration not stated)
  0.5%	4.6%
> CCC(=O)Nc1sc2c(c1C(=O)Nc1ccccc1C)CCC(C)C2 (configuration not stated)
  -23.7%	-22.3%
> CN1CCC(=C2c3ccccc3CCc3cccnc32)CC1
  ·	8.6%
> Cc1ccc(OCCCCn2c(CCNC(=O)C(C)(C)C)nc3ccccc32)cc1
  ?	?
> CCn1nnc2cc(C(=O)Nc3cccc(C(F)(F)F)c3)ccc21
  -1.0%	20.6%
> CCCOc1ccc(C2=NC(c3ccc(F)cc3)=Nc3ccc(OC)cc3N2)cc1
  -52.8%	-12.7%
> Cc1ccc(-c2nnc3ccccc3c2C(=O)Nc2ccccc2F)cc1
  -2.2%	51.6%[activator]
> COc1cccc(-n2cc(C(=O)OCc3ccc(F)c(F)c3)c3ccccc3c2=O)c1
  ?	-14.0%
> Cc1ccc(CS(=O)(=O)c2ncc(Cl)c(C(=O)Nc3nc4ccc(C)cc4s3)n2)cc1
  6.48µM*	?
> Brc1cccc(-c2nn(-c3ccccc3)c3c2cnc2cc4c(cc23)OCO4)c1
  -0.9%	-4.6%
> Nc1c(-c2nc(-c3cccs3)no2)nnn1-c1cccc(F)c1
  0.7%	98.5%[activator]
> CC(C)Oc1ccc(CNC(=O)CN2C(=O)CCc3cc(S(=O)(=O)N4CCCCC4)ccc32)cc1
  6.8%	-23.9%
> COc1ccc(C(C(=O)NCc2ccccc2)N(C(=O)Cn2nnc3ccccc32)c2ccc(F)cc2)cc1 (configuration not stated)
  11.3µM*	-5.8%
> CCCCCn1c(=N)n(CC(O)COc2cccc(C)c2)c2ccccc21 (configuration not stated)
  17.8µM*	?
> O=C(c1ccc2c(c1)N(Cc1ccc(Cl)cc1)C(=O)c1ccccc1S2(=O)=O)N1CCN(Cc2ccccc2)CC1
  ?	?
> CCCCOC(=O)/C(C#N)=C/c1ccc(-c2cccc(C(F)(F)F)c2)o1
  -13.0%	-20.8%[11.5 µM]
> CCOC(=O)C1CCCN(S(=O)(=O)c2cc3c(cc2C)NC(=O)CO3)C1 (configuration not stated)
  7.4%	-26.4%
> Cc1ccc(Cn2cc(S(=O)(=O)c3ccccc3)c(=O)c3cc(F)c(N4CCOCC4)cc32)cc1
  -15.0%	-19.1%
> COc1ccc(S(=O)(=O)c2c(Nc3ccc(C)cc3)sc(C(=O)c3ccc4c(c3)OCO4)c2N)cc1
  9.3%	-30.0%
> CC1CCN(C(=O)Cn2c(=O)n(CCCCCC(=O)NCc3ccccc3Cl)c(=O)c3sccc32)CC1
  -41.3%	-2.4%
> C[C@H](Cn1cnc2c(N)ncnc21)OCP(=O)(O)O
  ·	-19.0%
> COCC(=O)NCc1nc2cccnc2n1Cc1ccc(F)cc1
  -20.8%	11.5%
> COc1ccc(N2CCN(C(=O)c3cc4c(s3)-c3c(C)cccc3OC4)CC2)cc1
  -12.5%	-0.5%
> CCc1noc(-c2ccc(N3CCCCC3C)c([N+](=O)[O-])c2)n1 (configuration not stated)
  ?	44.8%[activator]

The listing continues.
Every second line gives: PMP22 txn	HTT promoter inh
> CCn1cc2nc(SCc3ccc(F)cc3)n(Cc3ccc(Cl)cc3)c(=O)c2n1
  ?	-2.4%
> CC(=O)c1cc(-c2ccccc2)n(CCC(=O)Nc2cc(C)cc(C)c2)c1C
  ?	?
> CCn1nc(C)c2c(-c3ccccc3)cc(=O)n(C(C)C(=O)NCCc3ccccc3)c21 (configuration not stated)
  ?	-14.3%
> Cc1ccc(-n2c(SCC(N)=O)nc3c(oc4ccccc43)c2=O)cc1
  -26.3%	-29.9%
> COc1ccc2c(Sc3ccc(C)cc3)c(C(=O)NC(C)c3ccccc3)[nH]c2c1 (configuration not stated)
  ?	-18.9%
> Cc1ccc(NC(=O)C2CCCN(c3nnc(-n4c(C)ccc4C)s3)C2)cc1Cl (configuration not stated)
  ?	-5.2%
> CN1[C@H]2CC[C@H]1CC(OC(=O)c1c[nH]c3ccccc13)C2 (some centres not stated)
  ·	-12.7%
> Cc1ccccc1S(=O)Cc1ccc(C(=O)NCc2ccccc2Cl)o1 (configuration not stated)
  -17.8%	?
> CCOC(=O)c1ccc(NC(=O)CC2C(=O)N(c3ccccc3)C(=O)N2Cc2ccc(C)cc2)cc1 (configuration not stated)
  4.3%	?
> O=C(Cn1cc(SCc2cccc(Cl)c2)c2ccccc21)N1CCCCCC1
  ?	-13.9%

Taken from the results shown for reference:
Every second line gives: PMP22 txn	HTT promoter inh
> Cc1ccc(N2CCN(C(=O)c3cc(S(=O)(=O)N4CCCCC4)c[nH]3)CC2)c(C)c1
  -3.7%	16.2%
> O=C(CCCc1ccccc1)NC1CC(=O)N(c2ccc(F)cc2)C1 (configuration not stated)
  0.5%	4.6%

Following part.
Every second line gives: PMP22 txn	HTT promoter inh
> O=C(CSc1nnc(-c2cccc(Cl)c2)o1)N1CCc2ccccc21
  7.9%	-6.0%
> CCOc1ccc(NC(=O)NCCCN2CCN(c3ccc(OC)cc3)CC2)cc1
  ?	-8.1%
> Cc1ccc(N2CC(NC(=O)c3ccc(S(=O)(=O)N4CCCC4)cc3)CC2=O)cc1 (configuration not stated)
  ?	?
> COc1ccc(-c2[nH]c(-c3cccc(OC)c3)nc2SCC(=O)Nc2ccc3c(c2)OCO3)cc1
  -13.8%	?
> COc1ccc(CCNC(=O)CCCn2c(=O)c3ccccc3n(Cc3ccccc3)c2=O)cc1OC
  ?	?
> CCCn1c2ccccc2c2cnn(CC(=O)NCCc3ccccc3)c(=O)c21
  -4.8%	-23.4%
> Cc1ccccc1OC(=O)c1nc(SCc2ccccc2F)ncc1Cl
  -19.8%	-8.9%
> Cc1ccc(-n2ncc3c(NCCc4ccccc4)ncnc32)cc1Cl
  -1.9%	18.3%
> COc1ccc(Cl)cc1Nc1ncnc2c1c(-c1ccccc1)cn2-c1ccccc1
  0.2%	-16.8%
> COc1ccc(/C=C(/C#N)c2nc(-c3ccc(-c4ccccc4)cc3)cs2)cc1
  -1.7%	2.9%
> COc1ccc(C(C)C)cc1S(=O)(=O)NCCc1c(C)[nH]c2c(Cl)cccc12
  ?	?
> O=C1Nc2ccccc2C1Cc1ccc(Br)cc1 (configuration not stated)
  ?	-16.8%
> CC(=O)Nc1ccc(NCc2nnc3n2CCCCC3)cc1
  -1.5%	-5.6%
> Cc1ccccc1NC(=O)Cn1nnc(C(=O)NCc2cccs2)c1N
  -4.5%	-31.8%
> O=c1oc2ccccc2cc1-c1cn2cc(Cc3ccc(Cl)cc3)sc2n1
  -11.2%	-15.1%
> CCCCNC(=O)CSc1nc2cc3c(cc2c(=O)n1CCCCCC(=O)NCc1ccc(OC)cc1)OCO3
  15.0%	-9.9%
> COc1ccc(-n2cnc3cc(C(=O)NC4CCCC4)ccc32)cc1
  3.0%	-20.7%
> COc1ccc(Cl)cc1NC(=O)CCCn1c(C)c2cnn(-c3ccccc3)c(=O)c2c1C
  -77.2%	-11.2%
> CCn1nc(C)c(CCN(C)C(=O)Nc2cccc(Cl)c2C)c1C
  3.6%	-18.8%
> Cc1ccc(NC(=O)Cn2c(=O)n(CCCCC(=O)NCc3ccc4c(c3)OCO4)c(=O)c3ccccc32)cc1
  ?	-18.4%
> CSc1ncc(C(=O)N2CCN(c3ccc(F)cc3)CC2)c(C)n1
  -13.1%	-7.0%
> COc1ccccc1CNC(=O)CCn1c(=O)c2ccccc2n(CC(=O)Nc2ccc(C)cc2Cl)c1=O
  ?	-8.3%
> COc1ccc(-c2nnc(SCC(=O)Nc3cccc(C)c3)s2)cc1
  -2.4%	-10.9%
> CCc1ccc(NC(=O)Cn2ccn(-c3ccc(OC)cc3)c(=O)c2=O)cc1
  8.4%	-23.1%
> CCCCN(CC)CCNC(=O)c1nn(C)c2c1CS(=O)(=O)c1ccccc1-2
  -7.9%	5.5%
> OCc1cnc(SCc2ccccc2F)n1Cc1ccc(F)cc1
  -24.9%	-21.3%
> CCCNC(=O)CN1C(=O)c2c(c3ccccc3n2C)C1c1ccc(OC)cc1 (configuration not stated)
  -4.4%	-26.1%
> COc1ccc(S(=O)(=O)N2CCCN(CC(=O)Nc3ccc(OC)cc3OC)CC2)cc1
  -21.9%	22.8%[11.5 µM]
> Cc1c(Cl)cccc1-c1ccc(CNCCCSc2nnnn2C)o1
  ?	-21.0%
> Cc1cc(C)c(NC(=O)CCCn2c(C)c3cnn(-c4ccccc4)c(=O)c3c2C)c(C)c1
  -11.1%	-27.5%
> CCC(C(=O)Nc1cccc(C#N)c1)n1c(=O)c(-c2ccccc2NC(C)=O)nc2ccccc21 (configuration not stated)
  ?	?
> Cc1cccc(C)c1OCC(=O)N(Cc1ccc(Cl)cc1)CC1CCCO1 (configuration not stated)
  -13.9%	-14.2%
> COc1ccc(CNS(=O)(=O)c2cnc(N)nc2)c(OC)c1
  -37.6%	0.2%
> Cc1ccc(NC(=O)C2CCCN2S(=O)(=O)c2ccc3c(c2)CCCC(=O)N3)cc1Cl (configuration not stated)
  ?	?
> O=C(Nc1ccc(F)cc1Cl)c1cnc(N2CCOCC2)c2ccccc12
  -4.9%	6.6%
> COc1ccc(CCNCc2c(C(=O)O)c(C)n(Cc3cccc(Cl)c3)c2C)c(OC)c1OC
  ?	-11.1%
> O=C(c1ccc2c(c1)N(Cc1ccccc1)C(=O)c1ccccc1S2(=O)=O)N1CCN(Cc2ccccc2)CC1
  ?	?
> Cc1ccc(CNC(=O)CCN2C(=O)C(C)Oc3ccc(C)cc32)cc1 (configuration not stated)
  -12.9%	-21.8%
> CC(C)(C)C(=O)CSc1nc2ccsc2c(=O)n1Cc1ccccc1F
  ?	-15.1%
> CCNC(=O)c1c(NC(=O)Cc2coc3cc(C)cc(C)c23)sc2c1CCCC2
  -14.7%	0.7%
